# Yeast UUG start: yeast start codon fidelity modulation; S. cerevisiae UUG-firefly luciferase reporter, luminescence/redox ratio; activity score, % at 18.7 µM; actives 0.13% (n = 350,000);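 active = replicate mean at a twofold rise or more, about +100% in these data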;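 note: firefly luciferase made from a UUG start codon reports start codon fidelity; reporter light over untreated wells divided by growth signal over untreated wells; some hits fall short of that in this replicate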
# The depositor's hits bear a star. Some of the compounds tested. The share of hits here may be higher or lower than overall.
# Sample of the layout:
SMILES,Yeast UUG start
COc1ccc(CN(C)C[C@H]2Oc3ccc(NC(=O)Cn4cnnn4)cc3CC(=O)N([C@@H](C)CO)C[C@@H]2C)cc1,6.1
CCN(C[C@H]1[C@@H](c2ccccc2)[C@H](CO)N1CC1CC1)C(=O)c1ccccn1,2.4
COc1ccccc1NC(=O)N1C[C@H]2[C@@H](c3ccccc31)[C@H](CO)N2C(=O)C1CCCC1,9.6
COc1ccccc1C(=O)Nc1ccc2c(c1)C(=O)N(C)[C@H]1CC[C@@H](CC(=O)NCc3ccc(Cl)c(Cl)c3)O[C@H]1CO2,-13.3

# The list itself, repeating the preview:
SMILES,Yeast UUG start
COc1ccc(CN(C)C[C@H]2Oc3ccc(NC(=O)Cn4cnnn4)cc3CC(=O)N([C@@H](C)CO)C[C@@H]2C)cc1,6.1
CCN(C[C@H]1[C@@H](c2ccccc2)[C@H](CO)N1CC1CC1)C(=O)c1ccccn1,2.4
COc1ccccc1NC(=O)N1C[C@H]2[C@@H](c3ccccc31)[C@H](CO)N2C(=O)C1CCCC1,9.6
COc1ccccc1C(=O)Nc1ccc2c(c1)C(=O)N(C)[C@H]1CC[C@@H](CC(=O)NCc3ccc(Cl)c(Cl)c3)O[C@H]1CO2,-13.3
O=C(CN1CCOCC1)N1CC[C@H]2[C@H](CO)Nc3ccc(-c4ccccc4F)cc3[C@H]21,6.2
C[C@@H]1CN([C@@H](C)CO)C(=O)c2cc(NC(=O)Nc3ccc(C(F)(F)F)cc3)ccc2O[C@@H]1CN(C)S(=O)(=O)c1cn(C)cn1,11.2
COc1cccc(S(=O)(=O)N2CCCCN3[C@H](CO)[C@@H](c4ccc(C#CC5CC5)cc4)[C@@H]3C2)c1,-11.2
COCC(=O)N1[C@H](CO)[C@H](c2ccccc2)[C@@H]1CNC(=O)c1ccccn1,0.1
C[C@@H]1CN([C@H](C)CO)C(=O)c2cc(NC(=O)c3ccncc3)ccc2O[C@H]1CN(C)C(=O)Nc1ccccc1,-10.1
CCCNC(=O)[C@H]1[C@H](CO)[C@H]2Cn3c(ccc(-c4ccccc4F)c3=O)[C@@H]1N2CCC,0.4
COc1ccc(S(=O)(=O)N(C)C[C@H]2Oc3ccc(NC(=O)C4CC4)cc3C(=O)N([C@@H](C)CO)C[C@H]2C)cc1,6.9
C[C@@H]1CN([C@H](C)CO)C(=O)c2cccc(NC(=O)c3ccc(-c4nccs4)cc3)c2O[C@@H]1CN(C)Cc1ccncc1,19.1
O=C([C@@H]1[C@@H](CO)[C@@H]2Cn3c(cccc3=O)[C@@H]2N1CC1CC1)N1CCc2ccccc2C1,3.5
CN1CCN(C(=O)C[C@@H]2C[C@H]3c4cc(NC(=O)Nc5ccc(F)cc5)ccc4O[C@H]3[C@@H](CO)O2)CC1,2.2
Cc1noc(C)c1NC(=O)Nc1ccc2c(c1)C(=O)N([C@H](C)CO)C[C@H](C)[C@@H](CN(C)C(=O)Nc1cccc3ccccc13)O2,-3.8
Cc1ccc(S(=O)(=O)Nc2ccc3c(c2)CC(=O)N([C@@H](C)CO)C[C@H](C)[C@H](CN(C)C(=O)Nc2ccc(F)cc2)O3)cc1,10.4
CO[C@@H]1CN(C)C(=O)c2ccc(NC(=O)c3cnccn3)cc2OC[C@H](C)N(C(=O)C2CC2)C[C@@H]1C,-8.2
CO[C@H]1CN(C)C(=O)c2cc(NC(=O)C3CC3)ccc2OC[C@@H](C)N(C(=O)c2ccccc2)C[C@@H]1C,7.3
CCNC(=O)C[C@H]1CC[C@@H]2[C@H](COC[C@H](O)CN2Cc2ccccc2F)O1,1.3
O=C(c1ccccn1)N1CC[C@@H]2[C@@H](CO)Nc3ccc(-c4ccccc4F)cc3[C@@H]21,-12.8
C[C@@H]1CN([C@H](C)CO)C(=O)Cc2cc(NC(=O)Nc3cccc4ccccc34)ccc2O[C@@H]1CN(C)Cc1ccc2c(c1)OCO2,1.1
C[C@@H]1CN([C@H](C)CO)C(=O)c2cc(NC(=O)C3CC3)ccc2O[C@H]1CN(C)S(=O)(=O)c1ccc(Cl)cc1,3.0
O=C(Nc1ccc(F)cc1)N1CCCCN2[C@H](C1)[C@@H](c1ccc(-c3ccncc3)cc1)[C@@H]2CO,-2.1
O=C(Nc1cc(F)ccc1F)N1CCCCN2[C@@H](CO)[C@H](c3ccc(-c4cccnc4)cc3)[C@@H]2C1,-6.2
C[C@@H]1CN([C@@H](C)CO)C(=O)c2cc(NC(=O)Cc3ccccc3)ccc2O[C@@H]1CN(C)Cc1ccc(Oc2ccccc2)cc1,-0.5
SMILES,Yeast UUG start
CO[C@H]1CN(C)C(=O)c2cc(NC(=O)C3CC3)ccc2OC[C@@H](C)N(CC2CC2)C[C@@H]1C,2.2
COC(=O)C[C@@H]1CC[C@@H]2[C@H](COc3ccc(NC(=O)Nc4cccc(C#N)c4)cc3C(=O)N2C)O1,5.4
Cc1cc(C(=O)Nc2cccc3c2O[C@H](CN(C)S(=O)(=O)c2cccs2)[C@H](C)CN([C@@H](C)CO)C3=O)n(C)n1,-6.5
O=S(=O)(c1ccc(F)cc1)N1C[C@H]2[C@@H](c3ccccc31)[C@H](CO)N2Cc1ccccc1Cl,18.9
C[C@H]1CN([C@@H](C)CO)C(=O)c2cccc(NC(=O)C3CCOCC3)c2O[C@H]1CN(C)S(=O)(=O)c1ccc(Cl)cc1,0.5
COc1cccc(-c2ccc3c(c2)[C@H]2[C@H](CCN2C(=O)c2ccc4c(c2)OCO4)[C@H](CO)N3C)c1,2.1
CNC[C@@H]1Oc2c(NS(=O)(=O)c3ccc(Cl)cc3)cccc2C(=O)N([C@@H](C)CO)C[C@@H]1C,5.9
O=C(C[C@@H]1CC[C@@H]2[C@H](COC[C@H](O)CN2Cc2ccccc2)O1)N[C@@H]1CCN(Cc2ccccc2)C1,-7.1
COCC#Cc1ccc([C@H]2[C@@H](CO)N3CCCCN(S(=O)(=O)c4ccccc4C)C[C@@H]23)cc1,17.2
O=C(Nc1ccc(F)cc1)N1CCCCN2[C@H](C1)[C@H](c1ccc(C3=CCCCC3)cc1)[C@@H]2CO,6.2
C[C@@H]1CN([C@@H](C)CO)C(=O)CCCn2cc(nn2)CO[C@@H]1CN(C)S(=O)(=O)c1ccc(C#N)cc1,15.9
COc1ccc(-c2ccc3c(c2)[C@H]2[C@H](CCN2C(=O)C2CCOCC2)[C@@H](CO)N3C)cc1,23.3
O=C(CC1CC1)Nc1ccc2c(c1)[C@@H]1C[C@@H](CC(=O)N3CCOCC3)O[C@@H](CO)[C@@H]1O2,6.9
Cc1noc(C)c1S(=O)(=O)Nc1cccc2c1O[C@@H](CN(C)Cc1ccc(Cl)c(Cl)c1)[C@@H](C)CN([C@@H](C)CO)C2=O,9.1
ClCC(CNCc1ccccc1)c1ccccc1 (stereo not given),-2.9
CCCNC(=O)N1C[C@H]2[C@@H](c3ccccc31)[C@@H](CO)N2C(=O)NC(C)C,-10.7
C[C@H]1CN([C@@H](C)CO)C(=O)c2cccc(NC(=O)c3nc4ccccc4s3)c2O[C@@H]1CN(C)C(=O)Nc1ccc(C(F)(F)F)cc1,4.2
CC(=O)N1[C@@H]2c3ccc(C4=CCCCC4)c(=O)n3C[C@@H]2[C@@H](CO)[C@@H]1C(=O)Nc1ccccc1,28.2
CCCNC(=O)Nc1ccc2c(c1)OC[C@@H](C)N(C(=O)c1ccccc1F)C[C@@H](C)[C@@H](OC)CN(C)C2=O,6.2
CN1C(=O)c2cc(NS(=O)(=O)c3ccc(Cl)cc3)ccc2OC[C@@H]2O[C@H](CC(=O)O)CC[C@H]21,-2.7
C[C@@H](O)C#Cc1ccc([C@H]2[C@@H](CO)N3CCCCN(C(=O)c4ccncc4)C[C@@H]23)cc1,11.8
COc1ccc(-c2ccc3c(c2)[C@H]2[C@H](CCN2S(=O)(=O)c2ccc(OC)cc2)[C@H](CO)N3C)cc1,-3.4
COCC(=O)Nc1ccc2c(c1)C(=O)N(C)C[C@H](OC)[C@@H](C)CN(Cc1cccc(F)c1)[C@@H](C)CO2,3.0
C[C@@H]1CN([C@@H](C)CO)C(=O)c2cccc(NC(=O)C3CCCCC3)c2O[C@H]1CN(C)Cc1ccc2c(c1)OCO2,20.8
CN(C)CC#Cc1ccc([C@H]2[C@H](CO)N3CCCCN(C(=O)C4CCC4)C[C@@H]23)cc1,-8.5
SMILES,Yeast UUG start
C[C@H](CO)N1C[C@H](C)[C@@H](CN(C)Cc2ccc(Cl)c(Cl)c2)Oc2c(NC(=O)C3CCCCC3)cccc2C1=O,0.4
COc1ccccc1S(=O)(=O)N1CC[C@@H]2[C@H]1c1cc(-c3ccccc3F)ccc1N(C)[C@H]2CO,-0.4
CO[C@@H]1CN(C)C(=O)c2ccc(NS(C)(=O)=O)cc2OC[C@H](C)N(Cc2cccnc2)C[C@@H]1C,-14.0
Cc1noc(C)c1NC(=O)Nc1cccc2c1O[C@@H](CN(C)S(=O)(=O)c1cn(C)cn1)[C@H](C)CN([C@H](C)CO)C2=O,-3.3
O=C(c1cccc(F)c1)N1CCCCN2[C@@H](CO)[C@H](c3ccc(/C=C/c4ccccc4)cc3)[C@@H]2C1,-10.8
C[C@H](CO)N1C[C@H](C)[C@H](CN(C)S(=O)(=O)c2ccc(F)cc2)Oc2ccc(NC(=O)C3CCCCC3)cc2CC1=O,4.5
C[C@H](CO)N1C[C@H](C)[C@@H](CN(C)Cc2ccncc2)Oc2ccc(NS(=O)(=O)c3cn(C)cn3)cc2C1=O,-1.1
C[C@H](CO)N1C[C@H](C)[C@H](CN(C)Cc2ccc(C(=O)O)cc2)Oc2ccc(NC(=O)c3ccncc3)cc2CC1=O,-1.7
CN1C(=O)c2cc(NC(=O)C3CC3)ccc2OC[C@H]2O[C@@H](CC(=O)NC3CCC3)CC[C@@H]21,-2.2
O=C(Nc1ccc(F)cc1)N1C[C@H]2[C@@H](c3ccccc31)[C@H](CO)N2C(=O)Cc1ccccn1,10.0
COCC(=O)N(C[C@H]1[C@H](c2ccccc2)[C@@H](CO)N1C(=O)NC(C)C)C(C)C,-17.1
COc1ccc(C(=O)Nc2ccc3c(c2)OC[C@H](C)N(C(C)=O)C[C@@H](C)[C@H](OC)CN(C)C3=O)cc1,5.0
CC(C)NC(=O)N(C)C[C@H]1Oc2ccc(NC(=O)CCN3CCOCC3)cc2CC(=O)N([C@@H](C)CO)C[C@H]1C,17.5
O=S(=O)(c1ccccc1F)N1C[C@@H]2[C@H](c3ccccc31)[C@H](CO)N2Cc1ccc2c(c1)OCO2,-2.2
CC(C)NC(=O)N1CC[C@@H]2[C@H]1c1cc(Br)ccc1N(C)[C@@H]2CO,0.2
Cc1noc(C)c1NC(=O)Nc1ccc2c(c1)CC(=O)N([C@@H](C)CO)C[C@H](C)[C@@H](CN(C)C)O2,43.2
C[C@@H]1CN([C@H](C)CO)C(=O)Cc2cc(NC(=O)C3CCCCC3)ccc2O[C@H]1CN(C)C(=O)NC1CCCCC1,4.6
CCNC(=O)[C@H]1[C@H](CO)[C@H]2Cn3c(ccc(-c4ccc(F)cc4)c3=O)[C@H]2N1Cc1cc(F)ccc1F,18.2
CC(=O)NC[C@H]1[C@@H](c2ccc(-c3ccccc3)cc2)[C@@H](CO)N1C(=O)C1CCC1,-1.4
CC(C)NC(=O)N1CCCCN2[C@H](C1)[C@H](c1ccc(C#C[C@@H](C)O)cc1)[C@@H]2CO,4.8
O=C(c1ccccc1)N1C[C@H]2[C@@H](c3ccccc31)[C@@H](CO)N2C(=O)Nc1ccccc1Cl,23.6
O=C(c1cccnc1)N1CCCCN2[C@H](C1)[C@@H](c1ccc(C#Cc3ccccn3)cc1)[C@@H]2CO,0.7
O=C(C[C@H]1CC[C@@H]2[C@H](COC[C@H](O)CN2Cc2ccc(F)cc2)O1)N1CCc2ccccc2C1,5.2
Cc1cccc(-c2ccc([C@@H]3[C@H]4CN(S(=O)(=O)c5cn(C)cn5)CCCCN4[C@H]3CO)cc2)c1,6.1
Cc1ccccc1-c1ccc([C@H]2[C@@H](CO)N3CCCCN(C(=O)Nc4ccccc4)C[C@@H]23)cc1,14.8

# Brought forward from above: two entries, then new ones.
SMILES,Yeast UUG start
Cc1cccc(-c2ccc([C@@H]3[C@H]4CN(S(=O)(=O)c5cn(C)cn5)CCCCN4[C@H]3CO)cc2)c1,6.1
Cc1ccccc1-c1ccc([C@H]2[C@@H](CO)N3CCCCN(C(=O)Nc4ccccc4)C[C@@H]23)cc1,14.8
CCS(=O)(=O)Nc1ccc2c(c1)C(=O)N(C)[C@H]1CC[C@@H](CC(=O)OC)O[C@@H]1CO2,-3.7
CCS(=O)(=O)N1CCCCN2[C@H](C1)[C@@H](c1ccc(C#Cc3ccccc3OC)cc1)[C@@H]2CO,5.5
COCC(=O)Nc1ccc2c(c1)C(=O)N(C)C[C@@H](OC)[C@H](C)CN(C(=O)c1ccccn1)[C@H](C)CO2,-11.1
COCC(=O)Nc1ccc2c(c1)C(=O)N(C)C[C@H](OC)[C@H](C)CN(CC1CCCCC1)[C@@H](C)CO2,-4.6
O=C(C[C@H]1CC[C@H]2[C@@H](COC[C@H](O)CN2Cc2cccc(-c3ccncc3)c2)O1)N1CCCCC1,-4.8
O=C(C[C@@H]1CC[C@H]2[C@@H](COC[C@@H](O)CN2Cc2cccc(C(F)(F)F)c2)O1)NCc1ccncc1,0.4
C[C@@H]1CN([C@H](C)CO)C(=O)Cc2cc(NS(=O)(=O)c3ccccc3)ccc2O[C@@H]1CN(C)C(=O)Nc1ccc(F)cc1,6.4
C[C@@H]1CN([C@@H](C)CO)C(=O)c2cc(NC(=O)CCCN(C)C)ccc2O[C@@H]1CN(C)S(=O)(=O)c1ccc(Cl)cc1,50.2
Cc1noc(C)c1S(=O)(=O)Nc1ccc2c(c1)C(=O)N([C@@H](C)CO)C[C@@H](C)[C@@H](CN(C)C)O2,-11.1
Cc1noc(C)c1S(=O)(=O)Nc1cccc2c1O[C@H](CN(C)S(=O)(=O)c1cn(C)cn1)[C@H](C)CN([C@H](C)CO)C2=O,-2.9

# Grouped by structure, those above with a COOH group.
SMILES,Yeast UUG start
CN1C(=O)c2cc(NS(=O)(=O)c3ccc(Cl)cc3)ccc2OC[C@@H]2O[C@H](CC(=O)O)CC[C@H]21,-2.7
C[C@H](CO)N1C[C@H](C)[C@H](CN(C)Cc2ccc(C(=O)O)cc2)Oc2ccc(NC(=O)c3ccncc3)cc2CC1=O,-1.7

# Screening results from PubChem.
